Bioassay records (PubChem BioAssay)
Mtb growth: M. tuberculosis H37Rv growth inhibitors, H37Rv strain (AID 1626); inhibition, % at 10 µM, or IC50 in µM where a hit was titrated; 220,000 compounds, 0.95% hits; M. tuberculosis H37Rv growth inhibition; higher % means a stronger effect;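 active means confirmed in a dose series; inconclusive means inhibition above 80% but not taken into the dose series; inactive means below 80% or under 30% at every dose of the series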;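 further: bacteria incubated seven days before Alamar blue readout; 0% = bacteria only wells and 100% = bacteria with antibiotic wells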
Arbovirus anti: antivirals against arbovirus infection, primary screen, cell-based, full library, 10K replicate subset | arbovirus infection cell-based antiviral screen | inhibition, % at 10 µM | 200,000 compounds, 0.37% hits | AID 1251, 2008;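 active means inhibition from about 30%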;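 further: bluetongue infection of BSR cells; cell survival read as ATP light after 72 h; 0% = infected wells without compound and 100% = uninfected wells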
Mtb betalactam: beta-lactam sensitization of Mtb H37Rv, H37Rv; 330,000 compounds, 0.27% hits; M. tuberculosis H37Rv growth with meropenem, percent inhibition; hits of this screen are not shown here; inhibition, % at 25 µM;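 active means about 74% or more and at least 40 points above the plate without the antibiotic, then above 30% in a dose series; inconclusive means first-round hits that could not be retested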;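 further: growth measured after seven days incubation then overnight dye step; 0% = bacteria only wells and 100% = bacteria with antibiotic; twin plates without the antibiotic show which effects depend on it; some results filed as inactive read as strong as hits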
RecA splice inh: Mtb RecA intein splicing inhibitors, primary screen, biochemical, fluorescence, HTS. Protein RecA (Mycobacterium tuberculosis (strain ATCC 25618 / H37Rv)), P9WHJ3. cell-free RecA intein splicing. inhibition, %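 (about 9 µM by stock and volumes)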. 290,000 compounds, 0.75% hits; in the data active means inhibition above about 30%; inconclusive means no clear call, values can overlap the other calls;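 further: 0% = vehicle wells and 100% = reference inhibitor control wells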
Target sequence (P9WHJ3 whole entry, looked up, canonical isoform): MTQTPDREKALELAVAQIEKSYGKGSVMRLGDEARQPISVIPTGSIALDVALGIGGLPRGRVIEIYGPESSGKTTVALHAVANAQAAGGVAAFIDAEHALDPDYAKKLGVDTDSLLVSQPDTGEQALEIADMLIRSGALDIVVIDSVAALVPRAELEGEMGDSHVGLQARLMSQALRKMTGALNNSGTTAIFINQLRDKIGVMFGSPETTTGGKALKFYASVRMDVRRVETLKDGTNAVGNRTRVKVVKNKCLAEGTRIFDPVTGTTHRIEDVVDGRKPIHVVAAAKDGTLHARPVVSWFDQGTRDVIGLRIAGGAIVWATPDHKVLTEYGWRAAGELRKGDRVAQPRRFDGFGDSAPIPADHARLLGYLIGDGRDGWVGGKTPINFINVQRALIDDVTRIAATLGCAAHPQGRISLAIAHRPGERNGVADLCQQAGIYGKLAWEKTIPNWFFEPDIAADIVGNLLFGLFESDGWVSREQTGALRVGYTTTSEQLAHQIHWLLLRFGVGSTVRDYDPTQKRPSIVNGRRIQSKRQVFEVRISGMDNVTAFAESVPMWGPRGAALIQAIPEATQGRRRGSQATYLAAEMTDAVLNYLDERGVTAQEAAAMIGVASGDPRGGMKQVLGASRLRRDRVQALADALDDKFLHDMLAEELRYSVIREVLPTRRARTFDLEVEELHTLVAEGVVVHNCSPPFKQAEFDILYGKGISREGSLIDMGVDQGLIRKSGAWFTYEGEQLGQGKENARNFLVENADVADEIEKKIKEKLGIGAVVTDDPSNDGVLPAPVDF
YopH PTP inh: YopH tyrosine phosphatase inhibitors, primary screen, biochemical, fluorescence Ex485/Em525; AID 898, 2007; inhibition, %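 (about 10 µM by stock and volumes)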; 140,000 compounds, 0.16% hits;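 active means inhibition of 50% or more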;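 further: controls were vehicle for no effect and minimum signal wells for full effect; inactives centre near -20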
Arbovirus anti repeat: second read-out of Arbovirus anti, no call of its own (marks repeat the call); inhibition, %; measured here: 10K subset replicate screen; many hits read low in the repeat;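 first of two repeat runs on a subset; 0% = infected and 100% = uninfected wells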
* = called active by the depositor; ? = inconclusive; . = not tested or not shown.

SMILES	Mtb growth	Arbovirus anti	Mtb betalactam	RecA splice inh	YopH PTP inh	others
CC1CCN(c2ccc3nnc(CCC(=O)NC(C)C)n3n2)CC1	.	.	-0.2	1.0	.
CC1CC(C)CN(C(=O)c2nn(C)c3c2CSc2ccccc2-3)C1 (stereo unspecified)	.	.	0.1	5.0	.
CCN(CC)S(=O)(=O)c1ccc(C(=O)N2CCc3ccccc32)cc1	-0.9%	3.4	-6.0	-0.1	.
COc1cc(/C=N/S(=O)(=O)CCc2ccccc2)ccc1O	6.0%	-1.9	-0.4	0.8	-18.2
O=C(N[C@@H](Cc1ccccc1)C(=O)NC1CCCCCC1)c1ccco1	-7.3%	-3.5	5.0	2.3	0.6
Cn1nccc1C(=O)Nc1cccc(C(F)(F)F)c1	4.4%	-1.8	-3.2	-2.7	.
Cc1ccccc1N1C(=O)CC(=O)NC1=O	-12.0%	3.8	4.5	1.6	-15.8
CCC(C)c1ccc(NC(=O)C/C(C)=N/NC(=O)c2cnccn2)cc1 (stereo unspecified)	-1.2%	2.6	1.0	1.5	-19.5
O=C(NNC1=NCCN1Cc1ccccc1)c1cccc(C(F)(F)F)c1	2.8%	.	42.4	-0.2	.
CCO[C@H]1OC(C(=O)N2CCN(C)CC2)=C[C@@H](c2ccc3c(c2)OCO3)[C@@H]1CCCO	-3.0%	1.1	0.5	-3.0	.
CCN(CC)S(=O)(=O)c1cccc(-c2nnc(SCCOc3ccccc3)o2)c1	8.2%	-6.0	-8.5	4.9	-36.2
Cc1ccc(NC(=O)C2CCCCC2)c(O)c1	-4.8%	8.0	2.1	-3.9	.
Cc1ccc(S(=O)(=O)NCC(=O)OCC(=O)Nc2ccccc2OC(F)F)cc1	0.4%	8.6	1.1	0.4	-30.2
N#Cc1nc(-c2ccco2)oc1NCCCN1CCOCC1	-1.4%	5.5	-7.4	-2.1	-36.6
Cc1ccc(S(=O)(=O)Nc2ccncc2)c(C)c1N(C)S(=O)(=O)c1ccc(F)cc1	-4.0%	0.4	-7.1	-2.8	-24.4
COc1ccc(C(=O)N[C@H]2CCCCNC2=O)cc1OC1CCN(C(C)C)CC1	.	.	-4.3	-1.5	.
O=C1OCC(c2ccccc2)=C1c1ccc(S(=O)(=O)N2CCOCC2)s1	5.3%	12.7	2.8	-1.4	-48.4
COc1cc2nc(Cl)nc(N3CCCCC3)c2cc1OC	1.6%	1.6	3.3	0.7	.
NC(=O)c1nsc(C(=O)N(Cc2ccco2)C(C(=O)NCC2CCCO2)c2ccc(O)cc2)c1N (stereo unspecified)	.	.	0.1	-2.8	.
CC(=O)N/C(=C\c1ccccc1)C(=O)OC(C)C(=O)N(C)c1ccccc1 (stereo unspecified)	.	.	-9.2	0.4	.
O=C(CCc1ccccc1)Nc1ccc2c(c1)C(=O)OC2	.	.	-5.9	1.4	.
Cc1noc(C)c1S(=O)(=O)Nc1ccccc1OC(F)(F)F	0.6%	.	-1.7	-0.7	.
COc1ccccc1C(=O)NC(=O)COC(=O)CCOc1ccccc1C	.	.	2.6	-0.2	.
CC(C)NC(=O)COc1ccc(S(=O)(=O)N(C)Cc2ccccc2)cc1	0.5%	.	-1.5	-2.3	.
CCOC(=O)NC(=O)c1cn(CCNCCO)c(=O)[nH]c1=O	5.7%	5.5	0.1	-3.8	.
Next part.
SMILES	Mtb growth	Arbovirus anti	Mtb betalactam	RecA splice inh	YopH PTP inh	others
CC(C)(C)c1nc2ccccc2c2nnc(SCC(=O)Nc3nccs3)n12	-3.5%	-8.4	-2.0	0.5	-10.5
N#C/C(=C\c1ccc(OCCN2CCOCC2)cc1)C(=O)Nc1ccccc1F	.	.	-2.8	-0.8	.
Cc1ccc(N(CC(=O)NCCc2ccccc2)C(=O)c2csnn2)cc1	.	.	-4.5	0.9	.
C=C(C)COc1ccc(-c2[nH]ncc2-c2ccccc2)c(O)c1	16.1%	-41.7	26.0	9.1	-14.6
NC(=O)CC(NC(=O)Cc1cccc2ccccc12)c1ccc(N2CCN(c3ccccc3)CC2)c([N+](=O)[O-])c1 (stereo unspecified)	1.4%	.	-12.4	-0.4	.
CCc1ccccc1NC(=S)NCCSc1ccc(Cl)cc1	-1.5%	-29.0	-5.2	24.3	.
CC(C)Cc1nnc(NC(=O)CCC(=O)Nc2ccccc2F)s1	-0.9%	.	-2.2	.	.
O=C(Nc1cccc(F)c1)c1cc(S(=O)(=O)N2CCC3(CC2)OCCO3)ccc1F	-8.1%	7.4	-2.6	-2.6	.
O=C(/C=C/c1ccc2ccccc2n1)c1cc(Br)ccc1O	57.1%	.	13.8	1.5	.
CCO[C@@H]1OC(C(=O)NC2CC2)=C[C@H](c2c[nH]c3ccccc23)[C@H]1CCCO	-5.9%	.	-6.0	-0.9	.
Nc1ccc(CCNc2ncnc3c2ncn3[C@@H]2O[C@H](CO)[C@@H](O)[C@H]2O)cc1	-5.1%	.	-2.8	-1.5	.
CCCC(=O)OCC(=O)NC1CCCc2ccccc21 (stereo unspecified)	4.3%	8.2	-4.7	0.4	.
C=CCN1C(=O)C(Cc2ccc(C)cc2)S/C1=N/N=C/c1ccco1 (stereo unspecified)	0.9%	3.7	-1.2	0.7	3.8
N#Cc1ccc(NC(=O)CNc2cc(S(=O)(=O)N3CCOCC3)ccc2NCC2CCCO2)cc1 (stereo unspecified)	5.0%	-4.2	-4.9	-1.8	.
O=C(CSc1nnc(CNC(=O)c2ccco2)o1)Nc1cccc(F)c1	.	.	-4.1	0.1	.
O=C(N/C(=C\c1cccc([N+](=O)[O-])c1)C(=O)N1CCOCC1)c1cccc(Br)c1	.	.	-16.7	-1.5	.
CCCOc1ccc(C(O)C(CN2CCOCC2)c2ccccc2)cc1 (stereo unspecified)	-4.2%	11.4	0.8	1.8	-98.0
CC(=O)Nc1ccc(NC(=O)CSc2ncnc3c2cnn3Cc2ccccc2)cc1	6.4%	.	-0.7	0.9	.
Cc1ccc(C)c(OCC(=O)Nc2ccc(S(=O)(=O)Nc3ccccn3)cc2)c1C	-1.9%	-5.3	3.7	5.3	-17.8
O=C(c1ccccc1Br)N1CCN(c2ccc([N+](=O)[O-])c(N3CCOCC3)c2)CC1	-6.6%	-7.4	-4.9	5.1	.
CN(C)c1ccc(/C=N/N(Cc2ccccc2)c2ccccc2)cc1	5.5%	2.3	4.6	-2.4	-23.4
O=C1NC(=O)N(Cc2ccccc2)C(=O)/C1=C/c1cnn(-c2ccccc2)c1	-5.7%	3.6	1.7	-9.0	.
Clc1cccc(CSc2ncn(-c3ccccc3)n2)c1	-1.2%	-17.5	-4.5	.	-78.0
O=C(NCC1CC1)Nc1ccccc1F	.	.	-2.5	-1.9	.
O=C(O)COc1ccc(/C=N/NC(=O)c2cn(-c3ccccc3)nc2-c2ccccc2)cc1	.	.	-2.5	1.0	.
The listing continues:
SMILES	Mtb growth	Arbovirus anti	Mtb betalactam	RecA splice inh	YopH PTP inh	others
CCOC(=O)c1cc(C(=O)OCC)c(=O)[nH]c1N1CCCC1	-5.8%	3.9	5.0	-0.4	.
CC1(C)CC(=O)C2=C(C1)OC(N)=C(C#N)C2c1cccc(OC(=O)c2ccco2)c1 (stereo unspecified)	-3.4%	6.9	-2.2	-2.3	-28.9
Cc1nc(CNC(=O)CC2C(=O)NCCN2Cc2cccc(Oc3ccccc3)c2)cs1 (stereo unspecified)	-3.5%	1.1	3.7	5.9	.
CCOC(=O)/C(=C\c1ccc([N+](=O)[O-])o1)NC(=O)c1ccccc1	2.1%	-2.3	99.3	-11.0	-3.2
CCCCS(=O)CC(COC)OC(=O)c1ccccc1 (stereo unspecified)	-4.3%	4.6	8.9	2.1	.
Cc1nc2sc(C(c3cccs3)N3CCOCC3)c(O)n2n1 (stereo unspecified)	66.2%	7.8	-2.8	-0.2	-27.1	Arbovirus anti repeat=1.2
Cc1nn(C)c(C)c1S(=O)(=O)N1CCCC(C(=O)NCCc2ccc(Cl)cc2)C1 (stereo unspecified)	-7.8%	0.8	-14.6	.	-9.0
CC(C)(C)C(=O)Nc1cc(S(=O)(=O)Nc2ccc(Cl)cc2)ccc1O	4.6%	8.5	-1.6	4.1	.
O=C(c1ccccc1Cl)N(Cc1ccc(Cl)c(Cl)c1)N1C(=O)CCCC1=O	0.4%	-2.3	-6.5	1.0	.
COc1ccc(C)cc1NC(=O)c1nn(C)c(C(=O)Nc2cc(C)ccc2OC)c1[N+](=O)[O-]	.	.	-0.6	2.3	.
Cc1ccc(NC(=S)N2CCOCC2)c(C)c1	-6.4%	0.6	0.7	-1.0	-13.8
Cc1ccnc2nc(C(=O)Nc3nnc(-c4ccccc4)o3)nn12	-6.8%	7.5	2.6	-1.1	.
C/C(=N\Nc1nc(C)cc(-c2ccccc2)n1)c1cccc(N)c1	.	.	94.8	-1.9	.
CNCC(O)COc1cccc(OC)c1 (stereo unspecified)	2.4%	5.4	-6.0	-3.8	.
O=C(CCC1CCCN(C(=O)c2ccsc2)C1)N1CCN(c2ccccn2)CC1 (stereo unspecified)	-1.8%	.	-13.6	0.0	.
COc1ccc(-c2cc(C(=O)NCCN3CCOCC3)c3ccccc3n2)cc1	-0.7%	1.1	1.6	-0.4	-50.1
CCc1ccc(C2=CSC3=NCCN23)cc1	.	.	-1.0	0.8	.
Cc1cc(Cl)ccc1OCC(=O)Nc1nc(-c2cccs2)cs1	5.7%	-7.0	2.6	8.9	21.2
CN(Cc1ccccc1)C(=O)CN(C1CCCCC1)S(C)(=O)=O	-11.9%	4.1	-8.6	-0.3	-27.4
O=C(N/N=C/c1cc(Br)cc([N+](=O)[O-])c1O)c1ccc(NC(=O)c2ccc(F)cc2)cc1	.	.	1.4	8.4	.
CSc1ccccc1NS(=O)(=O)c1ccccc1	-10.4%	2.5	3.4	0.5	33.6
Cc1ccccc1-n1c(=O)c2ccccc2n2c(=O)[nH]nc12	-1.1%	-0.6	?	10.6	-24.4
O=C1CSC(=Nc2cccc(Cl)c2Cl)N1	.	.	1.3	2.6	.
O=C(CCS(=O)(=O)c1ccccc1)Nc1ccc(-c2nc3ccccc3s2)c(O)c1	-3.6%	0.0	6.7	-21.7	-12.8
CCOC(=O)C1=C(C)OC(N)=C(C(=O)OCC)C12C(=O)Nc1ccc(Br)cc12 (stereo unspecified)	-3.0%	2.6	-0.2	0.1	1.4

Among those listed so far, 7 contain an aryl methoxy group:
SMILES	Mtb growth	Arbovirus anti	Mtb betalactam	RecA splice inh	YopH PTP inh	others
COc1cc(/C=N/S(=O)(=O)CCc2ccccc2)ccc1O	6.0%	-1.9	-0.4	0.8	-18.2
COc1ccc(C(=O)N[C@H]2CCCCNC2=O)cc1OC1CCN(C(C)C)CC1	.	.	-4.3	-1.5	.
COc1cc2nc(Cl)nc(N3CCCCC3)c2cc1OC	1.6%	1.6	3.3	0.7	.
COc1ccccc1C(=O)NC(=O)COC(=O)CCOc1ccccc1C	.	.	2.6	-0.2	.
COc1ccc(C)cc1NC(=O)c1nn(C)c(C(=O)Nc2cc(C)ccc2OC)c1[N+](=O)[O-]	.	.	-0.6	2.3	.
CNCC(O)COc1cccc(OC)c1 (stereo unspecified)	2.4%	5.4	-6.0	-3.8	.
COc1ccc(-c2cc(C(=O)NCCN3CCOCC3)c3ccccc3n2)cc1	-0.7%	1.1	1.6	-0.4	-50.1

Later entries:
SMILES	Mtb growth	Arbovirus anti	Mtb betalactam	RecA splice inh	YopH PTP inh	others
COc1ccc(C)cc1NC(=O)COCC(=O)O	-5.0%	3.5	-9.2	-1.5	-23.7
CC1CC2(C)Oc3ccccc3C3OCC1(CO)C(C)C32 (stereo unspecified)	-0.5%	-7.1	-5.5	-1.7	-21.5
Cc1ccc(NC(=O)CCn2c(=O)c3cccn3c3ccccc32)c(C)c1	.	.	-0.1	-1.3	.
COc1ccc(C2(NC(C)=O)CCN(C(=O)c3ccco3)CC2)cc1	.	-0.2	-6.6	0.2	-40.7
CC(=O)Nc1ccc(NS(=O)(=O)Cc2ccccc2)cc1	11.5%	-0.9	1.6	-1.5	-0.5
CCN1C[C@@]2(COC)C3[C@@H](OC)[C@H]4[C@@H]1[C@@]3(C1C[C@H]3[C@H](OC(C)=O)C1[C@]4(OC(C)=O)C[C@H]3OC)[C@@H](OC)C[C@H]2OC(C)=O (stereo partly specified)	8.1%	.	-9.1	-1.7	.
CCc1ccc(NC(=O)c2cnc(SC)nc2C)cc1	.	.	97.0	1.6	.
CCOc1cc(/C=C2\SC(=O)N(CC(=O)Nc3ccccc3F)C2=O)cc([N+](=O)[O-])c1O	-5.4%	7.4	22.3	1.5	.

This is a subset; the hit share may differ from the screen's.
